Measles inh = inhibitors of measles virus growth in infected cells | infected Vero cells, GFP fluorescence, 64 h; stronger effect = lower value | z-score (no concentration beside the values) | actives 0.1% (n = 33,000) | AID 745;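 active = z-score under -3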;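 note: score is relative to mean and SD of the compound wells of a plate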
* = called active by the depositor. The list is partial (hit frequency here may not be typical).

`CCC(=O)N1c2ccc(S(=O)(=O)CCC(=O)Nc3ncc(Br)s3)cc2CC1C` (centres undefined) gave Measles inh -0.82.
For C=CCOC(=O)C1=C(C)Nc2ncnn2C1c1cc(Br)ccc1OC (centres undefined) the results were Measles inh -0.03.
Screening CCn1c(CCNC(=O)C(C)(C)C)nc2ccccc21 returned Measles inh -0.08.
`Cc1ncc([N+](=O)[O-])n1CC(=O)Nc1ccc2c(c1)OCO2` gave Measles inh -0.85.
`Cc1ccc(-c2c(C(=O)N3CCN(c4cc(C)ccc4C)CC3)oc(=O)c3ccccc23)cc1` gave Measles inh 0.55.
`CCC1(CC)Cc2ccccc2C(Nc2c(C)n(C)n(-c3ccccc3)c2=O)=N1` gave Measles inh 0.01.
COc1cc(OC)cc(-n2nc(C(=O)Nc3cc(C)c(Cl)cc3OC)c3ccccc3c2=O)c1 was read as Measles inh -0.25.
`CC(=O)N1c2ccc(S(=O)(=O)NC3CCCCC3)cc2CC1C` (centres undefined) gave Measles inh 0.66.
COC(=O)c1sc(NC(=O)c2cc3nc(-c4ccc([N+](=O)[O-])cc4)cc(C(F)(F)F)n3n2)c(C(=O)OC)c1C was read as Measles inh -0.06.
COc1ccc(CC(Cc2nc3ccccc3[nH]2)c2nc3ccccc3[nH]2)cc1 (centres undefined) was read as Measles inh -1.6.
For O=C1OC(c2ccc(Br)cc2)(c2ccc(Br)cc2)c2ccccc21 the results were Measles inh 1.
O=C(Nc1ccc(Br)cc1C(=O)O)c1ccc2c(c1)C(=O)N(c1ccccc1-c1ccccc1)C2=O was read as Measles inh -0.34.
`COc1ccc(C2CC(=O)C3=C(C2)Nc2ccccc2NC3c2coc3ccc(Cl)cc3c2=O)cc1` (centres undefined) gave Measles inh 0.76.
CC(=O)c1ccc(C(=O)Nc2nc(-c3ccc(C)cc3)cs2)cc1 was read as Measles inh -0.83.
Screening CCN(CC)c1ccc(C2C3=C(CC(c4ccco4)CC3=O)Nc3ccccc3N2C(C)=O)cc1 (centres undefined) returned Measles inh -2.
CCOc1ccc(CN2CCN(S(=O)(=O)c3ccc([N+](=O)[O-])cc3)CC2)cc1 was read as Measles inh -0.53.
COc1ccc(Cl)cc1NC(=O)c1cc(S(=O)(=O)NCCc2ccc(Cl)cc2)ccc1F was read as Measles inh 0.61.
Screening O=c1c(N=Cc2ccccc2)cc2[nH]c3ccccc3c2n1-c1ccccc1 returned Measles inh 1.4.
`COc1ccc(C2C(C(=O)N3CCN(c4cccc(Cl)c4)CC3)c3cc(OC)c(OC)cc3C(=O)N2C)cc1` (centres undefined) gave Measles inh -1.2.
Screening O=C(OCCN=C1NS(=O)(=O)c2ccccc21)c1ccncc1 returned Measles inh 0.53.
Screening CCOC(=O)c1cc2c(=O)n3ccccc3nc2n(CCCOC)c1=NC(=O)c1ccccc1[N+](=O)[O-] returned Measles inh -0.73.
O=C(Nc1ccc2oc(-c3ccc(F)cc3)nc2c1)c1ccc(Cl)c([N+](=O)[O-])c1 was read as Measles inh -0.79.
CCOC(=O)C1=C(C)N(CCO)C(=O)NC1c1ccc(OCC)cc1 (centres undefined) was read as Measles inh 1.6.
CCCCOc1cccc(C(=O)Nc2ccc(Cl)cn2)c1 was read as Measles inh -0.39.
COC(=O)c1ccc(C2C3=C(CC(C)(C)CC3=O)N(c3ccc(F)cc3)C3=C2C(=O)CC(C)(C)C3)cc1 was read as Measles inh -0.1.
O=C(NC1CCCC1)c1cc2nc(-c3ccc(F)cc3)cc(C(F)(F)F)n2n1 was read as Measles inh -0.29.
For CCOC(=O)C(C(=O)Nc1ncccn1)C1CCCCC1 (centres undefined) the results were Measles inh -0.63.
`COc1ccc(C)cc1NC(=O)CN1CCN(c2ccccc2F)CC1` gave Measles inh -1.6.
For CCCOC(=O)c1ccc2c(c1)C(=O)N(c1ccc(OC)cc1)C2=O the results were Measles inh -0.41.
`CCCCNC(=O)CCn1c(=O)c2ccccc2n(Cc2ccccc2F)c1=O` gave Measles inh -0.07.
For O=C(Cn1c(=O)[nH]c2ccccc2c1=O)NC1CCCC1 the results were Measles inh -1.
Screening COc1ccc(CNC(=O)C2CC(=O)N(c3ccc(F)cc3)C2)cc1 (centres undefined) returned Measles inh -0.34.
Screening O=C1CC(c2ccccc2OCc2ccccc2)c2ccc3ccccc3c2N1 (centres undefined) returned Measles inh -0.89.
`COc1ccc(C(=O)N=c2sc3cc(F)ccc3n2C)cc1` gave Measles inh 0.79.
Screening Cc1c(C(=O)O)oc2ccc(S(=O)(=O)N(CC(C)C)CC(C)C)cc12 returned Measles inh -0.09.
For CC1=C(C(=O)OCc2ccccc2)C2(C(=O)Nc3ccc(Br)cc32)C(C(=O)OCc2ccccc2)=C(N)O1 (centres undefined) the results were Measles inh -0.04.
Screening COc1cc(NS(=O)(=O)c2ccc(NC(=O)c3ccc4c(c3)c(C)c(C)n4C)cc2)ncn1 returned Measles inh -0.17.
`O=C(Nc1ccc(NC(=O)c2cccc([N+](=O)[O-])c2)c(Cl)c1)c1cccc([N+](=O)[O-])c1` gave Measles inh -0.55.
`C=CCn1c(=S)[nH]c2cc(C(=O)NCc3ccccc3Cl)ccc2c1=O` gave Measles inh -0.73.
O=C1CC(c2ccc(Cl)cc2)CC2=C1C(c1ccc(C(F)(F)F)cc1)Nc1ccccc1N2 (centres undefined) was read as Measles inh -1.4.
For CCCC(C)C(=O)Nc1ccc(S(=O)(=O)Nc2nccc(C)n2)cc1 (centres undefined) the results were Measles inh -0.73.
For CC1=C(C(=O)OC2CCCC2)C(c2ccc(C)c([N+](=O)[O-])c2)C2=C(CC(c3cccs3)CC2=O)N1 (centres undefined) the results were Measles inh -0.58.
For CC(=O)C1=C(O)C(=O)N(CCO)C1c1ccc(Br)cc1 (centres undefined) the results were Measles inh -2.1.
O=C1C2CC=CCC2C(=O)N1c1ccc(Cl)cc1O (centres undefined) was read as Measles inh -0.14.
`Cc1cc(C)c2[nH]c(C)c(CN3CC4(C)CC3CC(C)(C)C4)c(=O)c2c1` (centres undefined) gave Measles inh -0.4.
`NC(=O)C12CCC3CC(CC(C3)C1)C2` gave Measles inh -0.11.
`CC(=O)Nc1cc(C(=O)N2CCc3ccccc3C2)ccc1Sc1ccc(F)cc1` gave Measles inh -1.1.
For O=C(c1ccc2c(c1)OCO2)N1CCN=C1SCc1cccnc1 the results were Measles inh 0.29.
CC(C)CN(CC(C)C)S(=O)(=O)N1CCC(C(=O)NC(C)C)CC1 was read as Measles inh 0.96.
For CCCCOC(=O)C1=C(C)NC2=C(C(=O)CCC2)C1c1ccccc1[N+](=O)[O-] (centres undefined) the results were Measles inh -0.24.
Screening CC1=C(C(=O)N2CCCCC2)C(c2ccc(O)cc2)C2=C(CC(C)(C)CC2=O)N1 (centres undefined) returned Measles inh 1.2.
`COc1ccccc1N=C1C(=O)Nc2ccccc21` gave Measles inh 0.65.
Screening O=C1CC(c2ccccc2)CC2=C1C(c1ccc(C(F)(F)F)cc1)Nc1ccccc1N2 (centres undefined) returned Measles inh 0.43.
COc1ccc(C(=O)CSc2n[nH]c(-c3ccco3)n2)cc1C was read as Measles inh 0.04.
Screening Cc1ccc(C=Cc2ccncc2)cc1 returned Measles inh -0.16.
For COc1cc(OC)cc(C(=O)Nc2cc(-c3nc4ncccc4o3)ccc2Cl)c1 the results were Measles inh 2.6.
Screening CCN(CC)C(=O)c1ccc(SCc2ccccc2Cl)c([N+](=O)[O-])c1 returned Measles inh -0.63.
For CC(O)C(=O)C12CC3CC(CC(C3)C1)C2 (centres undefined) the results were Measles inh -0.02.
O=C(COc1ccccc1)NC(C=Cc1ccccc1)c1cc(Cl)c2cccnc2c1O (centres undefined) was read as Measles inh -1.
`CCOc1ccc(OCC)c(NC(=O)C2CCN(S(=O)(=O)c3ccc(Br)s3)CC2)c1` gave Measles inh 0.27.
`COc1ccc(-n2nc(C(=O)NCC(=O)N3CCCC3)c3ccccc3c2=O)cc1Cl` gave Measles inh -0.17.
Cn1c(=O)c2ncc(N3CCCCC3)nc2n(C)c1=O was read as Measles inh -0.28.
For COc1ccc(C2=NN(CC(=O)NCCCN3CCCC(C)C3)C(=O)CC2)cc1 (centres undefined) the results were Measles inh 0.34.
Screening CCOc1ccc(-n2c(=O)c3c(C)c(C)sc3n(CC(=O)N3CCCCC3CC)c2=O)cc1 (centres undefined) returned Measles inh -0.2.
Screening O=C(C1CC1)N1CCc2cc(Br)cc(S(=O)(=O)N3CCN(c4cccc(Cl)c4)CC3)c21 returned Measles inh -0.47.
Cc1cc(I)ccc1NC(=O)c1cccc(CSc2nncn2C)c1 was read as Measles inh 0.06.
CCOC(=O)c1c(-c2ccccc2)csc1NC(=O)CSc1nc2ccccc2o1 was read as Measles inh -0.93.
For CC(=O)N1N=C(c2ccccc2)CC1c1ccc2nccnc2c1 (centres undefined) the results were Measles inh -0.38.
For O=C1C2CCCCC2C(=O)N1c1ccc(N2CCC(O)(c3cccc(C(F)(F)F)c3)CC2)c([N+](=O)[O-])c1 (centres undefined) the results were Measles inh 2.
`O=C(c1ccccc1)n1c(=S)nc2ccc(Br)cn21` gave Measles inh -0.75.
CCC(Sc1nc2ccsc2c(=O)n1Cc1ccc2c(c1)OCO2)C(=O)NCc1cccnc1 (centres undefined) was read as Measles inh 1.2.
Screening COc1cccc(CN2CCN(Cc3ccc4c(c3)OCO4)CC2)c1OC returned Measles inh 0.12.
Screening C=CCn1c(C(C)O)nc2ccccc21 (centres undefined) returned Measles inh 0.5.
`NC(=O)c1cc2nc(-c3cccs3)cc(C(F)(F)Cl)n2n1` gave Measles inh -0.69.
COc1cc2c(cc1OC)C(COc1ccccc1OC)N(C(=O)c1cccc(Cl)c1)CC2 (centres undefined) was read as Measles inh 0.1.
`CCCOc1ccc(C2C3=C(CC(C)(C)CC3=O)NC3=C2C(=O)CC(C)(C)C3)cc1` gave Measles inh 1.4.
`CCN(CC)S(=O)(=O)c1ccc2oc(C(=O)NCc3ccccc3)c(C)c2c1` gave Measles inh 0.05.
For O=C(Nc1ccc(F)cc1)c1cc(-c2ccccc2)nc2ccccc12 the results were Measles inh 1.3.
For O=C(NCc1ccc(C(=O)NCc2ccco2)cc1)c1cccc(Br)c1 the results were Measles inh 0.25.
`Cc1cccn2c(=O)c3cc(C(=O)NCc4ccccc4)c(=N)n(CC4CCCO4)c3nc12` (centres undefined) gave Measles inh -0.41.
For O=C(CN1CCN(Cc2ccccc2Cl)C1=O)NCc1ccccn1 the results were Measles inh -0.31.
For O=C(Nc1ccccc1Cl)c1cccc([N+](=O)[O-])c1 the results were Measles inh 0.1.
Screening CCOCCOC(=O)C1=C(C)NC(=O)NC1c1cc2c(cc1Br)OCO2 (centres undefined) returned Measles inh -0.3.
`COc1ccccc1N1CCN(C(=O)c2cnc(Nc3ccc(F)cc3)c3ccccc23)CC1` gave Measles inh 0.8.
For COC(=O)c1ccc(N=Cc2c(OC(=O)c3cccc([N+](=O)[O-])c3)ccc3ccccc23)cc1 the results were Measles inh 0.
`C=CCn1c(=O)[nH]c2c1c(=O)n(C)c(=O)n2C` gave Measles inh 0.66.
Screening CCOc1ccc2nc(SCC(=O)NC3CCCCC3)sc2c1 returned Measles inh -0.81.
For NC(=O)c1c(N=c2oc3ccc(Cl)cc3cc2C(N)=O)sc2c1CCCC2 the results were Measles inh 0.04.
`CC(C)OC(=O)c1cccc(N2C(=O)C3C4CCC(C4)C3C2=O)c1` (centres undefined) gave Measles inh 0.32.
`CC1=C(C(N)=O)C(c2ccco2)C(C(N)=O)=C(C)N1` gave Measles inh 2.2.
For Cc1ccc(C(=O)Nc2ccc(NC(=O)c3ccco3)c(Cl)c2)cc1[N+](=O)[O-] the results were Measles inh -0.08.
COc1ccccc1N1CCN(C(=O)c2cccc([N+](=O)[O-])c2)CC1 was read as Measles inh 0.74.
Screening CCOC(=O)C1=C(C)N=C2SC(CC)C(=O)N2C1c1ccc(OCC)c(OCC)c1 (centres undefined) returned Measles inh -1.1.
Screening CC(C)(C)NSc1nc2ccccc2s1 returned Measles inh 0.75.
Screening CCCOc1ccc(C2C(=O)N(C3CCC(C)CC3)CC(=O)N2Cc2cccs2)cc1OC (centres undefined) returned Measles inh -0.89.
For CCOC(=O)C1=C(C)Nc2nnnn2C1c1ccc(OC(=O)c2ccccc2)cc1 (centres undefined) the results were Measles inh 0.24.
For CC1=CCC2C(=O)N(c3ccccc3C)C(=O)C2C1 (centres undefined) the results were Measles inh 0.26.
For O=C(Nc1ccc(Cl)cn1)c1ccc(Br)c(S(=O)(=O)N2CCCCC2)c1 the results were Measles inh 0.85.
`O=[N+]([O-])c1ccc(SCCc2ccncc2)cc1` gave Measles inh 0.36.

An excerpt from above in order of molecular weight, low to high:
`COc1ccccc1N=C1C(=O)Nc2ccccc21` gave Measles inh 0.65.
For CC1=CCC2C(=O)N(c3ccccc3C)C(=O)C2C1 (centres undefined) the results were Measles inh 0.26.
For O=C(Cn1c(=O)[nH]c2ccccc2c1=O)NC1CCCC1 the results were Measles inh -1.
Screening O=C(OCCN=C1NS(=O)(=O)c2ccccc21)c1ccncc1 returned Measles inh 0.53.
CCOC(=O)C1=C(C)N(CCO)C(=O)NC1c1ccc(OCC)cc1 (centres undefined) was read as Measles inh 1.6.
For CCCC(C)C(=O)Nc1ccc(S(=O)(=O)Nc2nccc(C)n2)cc1 (centres undefined) the results were Measles inh -0.73.
Screening O=C1CC(c2ccccc2OCc2ccccc2)c2ccc3ccccc3c2N1 (centres undefined) returned Measles inh -0.89.
For CCCCOC(=O)C1=C(C)NC2=C(C(=O)CCC2)C1c1ccccc1[N+](=O)[O-] (centres undefined) the results were Measles inh -0.24.
`CCC1(CC)Cc2ccccc2C(Nc2c(C)n(C)n(-c3ccccc3)c2=O)=N1` gave Measles inh 0.01.
O=C(NC1CCCC1)c1cc2nc(-c3ccc(F)cc3)cc(C(F)(F)F)n2n1 was read as Measles inh -0.29.
`CCCCNC(=O)CCn1c(=O)c2ccccc2n(Cc2ccccc2F)c1=O` gave Measles inh -0.07.
CCOc1ccc(CN2CCN(S(=O)(=O)c3ccc([N+](=O)[O-])cc3)CC2)cc1 was read as Measles inh -0.53.
Screening CCOCCOC(=O)C1=C(C)NC(=O)NC1c1cc2c(cc1Br)OCO2 (centres undefined) returned Measles inh -0.3.
`O=C(Nc1ccc(NC(=O)c2cccc([N+](=O)[O-])c2)c(Cl)c1)c1cccc([N+](=O)[O-])c1` gave Measles inh -0.55.
`COc1ccccc1N1CCN(C(=O)c2cnc(Nc3ccc(F)cc3)c3ccccc23)CC1` gave Measles inh 0.8.
COc1cc2c(cc1OC)C(COc1ccccc1OC)N(C(=O)c1cccc(Cl)c1)CC2 (centres undefined) was read as Measles inh 0.1.
